# BasE inh – blocks the Acinetobacter baumannii siderophore enzyme BasE; purified BasE, fluorescence polarization binding displacement; inhibition, % (test concentration not listed); 84,000 tested, 0.1% active; AID 485350;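 active = both replicates above 25% with normal brightness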;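 also: 0% = negative plate control signal and 100% = positive plate control signal; stock transfer was 100 nL into about 30 µL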
# LANA-nucl inh – inhibitors of KSHV LANA binding to nucleosomes; FITC-LANA1-23 / chicken nucleosome fluorescence polarization; hits give low values; z-score (concentration not given with the values); 51,000 tested, 0.3% active; AID 720717;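 active = both repeat wells score below -2 in polarization z-score versus plate sample wells, excluding overly bright wells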;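 also: 100 nL library stock added to about 30 µL; numbers are from one replicate; some results filed as inactive read as strong as hits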
#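 System – purified chicken nucleosomes with FITC-labelled LANA N-terminal peptide (1-23) · Amount – 240 nM purified chicken nucleosomes (480 nM peptide binding sites), final · Also added – 50 nM FITC-LANA1-23 probe · Medium – TEN-BT buffer, pH 7.5 · Incubation – compound with peptide–nucleosome mix 10–45 min at room temperature · Detection – fluorescence polarization, ex 480 nm, em 535 nm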
# Numbers without * were called inactive; . = no result given; & = joins results of further samples.
SMILES,BasE inh,LANA-nucl inh
CCOC(=O)c1cnc2cc(C)[nH]n2c1=O,1.9,-0.4
COC(=O)C1CN(C(=O)c2ccc(C(C)(C)C)cc2)c2ccccc2O1 (configuration not stated),2.6,0.366
COc1ccc2oc(C(=O)OCc3cc(=O)oc4cc(C)ccc34)c(C)c2c1,-0.9,.
Cn1cc(C(=O)O)ccc1=O,0.2,-0.165
CC1=C(C(=O)N(C)C)C(c2ccccc2Cl)NC(=O)N1 (configuration not stated),-2.4,0.274
FC(F)(F)c1ccccc1-c1ccc(-c2nnc(-c3ccco3)o2)o1,1.7,0.0525
Cc1ccc(Cn2c(CO)cnc2SCC(=O)N2CC(C)OC(C)C2)cc1 (configuration not stated),-1.9,0.695
Clc1ccc(-c2csc(COc3ccc4nonc4c3)n2)cc1,-0.4,.
O=C(Nc1ccc(Oc2ncnc3sc4c(c23)CCCCC4)cc1)c1ccco1,1.8,.
O=C(Nc1c(Cl)cccc1Cl)N1CCOC12CCCCC2,2.2,0.0105
C=CCOc1ccccc1CN(C(=O)c1ccco1)c1ccc2c(c1)OCO2,-0.1,.
Cc1ccc(C(=O)CS(C)(=O)=O)cc1,7.2,-0.274
CCC(CC)NC(=O)CSc1nnc(-c2ccc(C)cc2)n1N,-0.1,.
CCN1CC=C2C(C#N)=C(N)C(C#N)(C#N)C(C)C2C1 (configuration not stated),6.3,-2.5*
CCCCC[C@H](O)/C=C/[C@H]1C(=O)C[C@H](O)[C@@H]1C/C=C\CCCC(=O)O,-2.4,-0.548
CN1CCCN(c2nc3ccccc3nc2NS(=O)(=O)c2ccc(Cl)cc2)CC1,0.4,.
NC(=O)C1CCN(CC(O)(c2ccccc2)c2ccccc2)CC1,-0.7,.
CC1CC(C)CN(S(=O)(=O)c2ccc(C(=O)OCc3nnc(-c4ccc(Cl)cc4)o3)cc2)C1 (configuration not stated),-0.7,.
COc1nc2ccccc2nc1CCC(=O)O,-1.0,0.359
NC(=O)c1cc(NC(=O)C2CCCC2)cc(C(N)=O)c1,-2.0,.
COc1ccc(CCNC(=O)CSc2ccccc2C(=O)N2CCN(C(C)=O)CC2)cc1OC,1.3,.
Cc1onc(-c2c(Cl)cccc2Cl)c1/C(N)=N/OC(=O)C1CC1,1.7,-0.538
COc1ccc(CN(C)CC(=O)NC(C)c2ccccc2)c(OC)c1 (configuration not stated),0.2,.
O=C(CC1SC(=Nc2ccccc2)NC1=O)NC1CC1 (configuration not stated),0.6,.
Cn1c(O)c(/C=N/Nc2nc3ccccc3s2)c(=O)n(C)c1=O,1.7,.
C=CCn1c(=O)c2ccccc2n2nnc(C(=O)OCC)c12,-1.0,.
C#CCOC(=O)Nc1cnc(N(C)C)c(C(F)(F)F)c1,2.1,0.691
C=C1Cc2c(Cl)cc3[nH]c4c5c3c2[C@@]2(O)[C@@H]1C[C@@H]2C(C)(C)O[C@H]5[C@@H]1CC[C@@]2(O)[C@@]35O[C@@H]3[C@@H](O)[C@@H](C(=O)O)O[C@H]5CC[C@]2(C)[C@@]41C,0.1,0.0025
CC(=O)NCCC(=O)N1C(=NCCc2ccccc2)SCC1(C)C,-5.3,.
CC(=O)Oc1ccc2c(c1)CCC1C2C(O)CC2(C)C(=O)CCC12 (configuration not stated),-3.6,2.21
O=C(Nc1ccnn1Cc1ccco1)c1cccnc1Sc1ccccc1,2.7,.
COc1ccc(Nc2c(C#N)c(C)nn2-c2ccccc2)cc1,-2.2,0.176
c1ccc(COc2c3c(nc4ccccc24)CCCC3)cc1,-1.2,.
CC(C)(C)C(=O)Nc1nc(NC(=O)C(C)(C)C)nc(-c2ccccc2Cl)n1,2.2,.
O=C(Oc1ccc(/C=N/n2cnnc2)cc1)c1ccco1,-0.6,.
COc1ccccc1CN(C)C(=O)c1ccc2nc[nH]c2c1,0.9,.
O=C(CC1SC(=Nc2ccc(O)cc2)NC1=O)Nc1ccccc1 (configuration not stated),0.6,-0.153
O=C(CN1CCC(c2nc(-c3ccncc3)n[nH]2)CC1)N1CCN(c2ccccc2F)CC1,2.5,0.5
COc1ccc(Sc2cnc3ccccc3n2)cc1,.,-0.034
O=C1CC2(CCCc3ccccc32)C(=O)N1CN1CCCCC1 (configuration not stated),.,-0.747
COC(=O)c1cc(=O)nc(NC(=O)Nc2c(-c3c(Cl)cccc3Cl)noc2C)s1,2.3,-1.35
O=S(=O)(Nc1nc2ccccc2nc1NCc1ccco1)c1ccc(F)cc1,-0.7,-0.095
Cc1cccc(OCCSC(N)=S)c1,-0.4,0.242
O=C(CN1CCCCC1)Nc1ccc(F)c(Cl)c1,.,0.431
Cc1nn(-c2ccccc2)c2sc(-c3nc(=S)[nH][nH]3)cc12,1.6,.
CCCCCC[C@@H]([C@@H](C)O)n1cnc2c(N)ncnc21,2.3,0.303
CCOC(=O)/C(C)=N/Nc1cc(C)cc(C)c1,1.2,-0.42
O=C(/C=N/Nc1nc2ccccc2o1)c1ccccc1,1.6,.
CN1CCc2c(c3ccccc3n2Cc2ccccc2)C1,-4.2&1.8,-0.17&0.767
O=C(CSc1nc(=O)n2ccccc2n1)Nc1ccccc1,0.2,0.277
S=c1[nH]nc(CN2CCCC2)n1-c1ccccc1,3.4,.
CC(C)(C)NC(=O)Nc1ccc(S(=O)(=O)N2CCCC2)cc1,-0.2,.
O=C(CNS(=O)(=O)c1ccccc1)NCC1CCCO1 (configuration not stated),0.3,0.631
COc1ccc(NC(=S)NN)cc1Cl,0.6,0.361
CC(O)c1nc2ccccc2n1C(F)F (configuration not stated),1.0,.
O=C(NCCc1ccccc1)c1cc2c(ccc3ccccc32)o1,1.3,.
COC(CNC(=O)c1c[nH]c2ccc(S(=O)(=O)N3CCOCC3)cc2c1=O)OC,1.4,-1.02
Cc1[nH]c2ccccc2c1C(=O)CN1CCCC1,1.2,.
Cc1nnc(N/N=C/C2CC=CCC2)[nH]c1=O (configuration not stated),-1.7,-0.203
CC(NS(=O)(=O)c1ccccc1)C(=O)NCc1ccc2c(c1)OCO2 (configuration not stated),0.7,0.512
# (listing goes on)
SMILES,BasE inh,LANA-nucl inh
CN(c1ccccc1)S(=O)(=O)c1c[nH]c(=O)[nH]c1=O,-1.4,-0.753
COc1ccc(C2NN(Cc3ccccc3)C3C(=O)N(Cc4ccccc4)C(=O)C23)cc1 (configuration not stated),3.1,-0.796
CCNc1nc(NCC)n2c(SCC(=O)c3cccc(C(F)(F)F)c3)nnc2n1,-2.5,.
O=C(CSc1ncnc2ccccc12)Nc1ccnn1C1CCCC1,1.8,.
CCON1C(=O)c2ccccc2C1=O,0.9,0.948
COC(=O)COc1ccc(S(=O)(=O)N2CCC(C)CC2)cc1,1.7,-1.2
Cc1ccc(C2c3c(oc4ccccc4c3=O)C(=O)N2c2ccccn2)cc1 (configuration not stated),1.1,-0.237
CCN(CC)c1ccc(-c2n[nH]c(=S)n2-c2ccccc2C)cc1,-2.6,.
Cc1ccc2nc(-c3cccc(-c4nc5ccc(C)cc5o4)c3)oc2c1,2.1,-0.834
CCOC(=O)N1CCN(CCC(=O)Nc2cc(OC)cc(OC)c2)CC1,-0.6,-0.529
COc1cccc(Cc2nnc(-c3ccc(-c4cccs4)s3)o2)c1,-2.0,.
C/C(=N\NC(=O)c1ccccc1)c1ccccc1,2.0,-0.235
COc1cccc(NCc2nnc(SCc3nnc(-c4cc(C)oc4C)o3)n2C2CCCCC2)c1,-7.5,.
Cc1ccc(C)c(NC(=S)N(Cc2ccco2)C(C)c2ccco2)c1 (configuration not stated),1.8,1.02
c1ccc(-c2nnc(CSc3nnc(C4CCCCC4)o3)o2)cc1,0.1,.
COC(=O)c1cc2sccc2n1Cc1ccc(C)cc1,0.6,-0.315
CC1(C)CC(=O)C(C=NCCN2CCOCC2)=C(O)C1,0.0,.
Cc1ccc2c(c1)C1CN(C)CCC1N2C(=S)Nc1ccc(S(=O)(=O)N2CCOCC2)cc1 (configuration not stated),3.1,.
Nc1c(N2CCCC2)c2ccccc2oc1=O,-0.4,0.146
Cn1c(=O)c(-c2nc(-c3ccccc3)cs2)cn(-c2ccccc2)c1=O,0.7,.
O=C1c2ccccc2NC(c2ccc(Cl)cc2Cl)N1O (configuration not stated),2.0,-0.371
CC1CCc2c(sc3nc(=S)sc(N)c23)C1 (configuration not stated),3.7,0.235
CC(C)n1c(CN(C)c2ccccc2)nc2ccccc21,0.9,-1.02
CCOC(=O)/C=c1\s/c(=C\c2ccc(C#N)cc2)c(=O)n1CC(=O)N1CCCCC1C (configuration not stated),-0.1,.
c1ccn(-c2cnccn2)c1,.,1.07
CCc1nn2c(=O)cc(COc3ccc(/C=C4/C(=N)N5C=CSC5=NC4=O)cc3)nc2s1,0.9,-0.918
O=C(NCCN1C(=O)C2C3C=CC(C3)C2C1=O)Nc1ccccc1 (configuration not stated),1.5,-0.843
O=C(CN1C(=O)COc2ccccc21)Nc1ccc(S(=O)(=O)Nc2ncccn2)cc1,-0.4,.
CCCCn1cnc2cc(NCc3ccncc3)ccc21,12.8,-0.392
C/C(=N\OC(=O)c1nn(C)cc1Br)c1ccc(Cl)cc1Cl,-1.9,0.511
Cc1ccc(Cn2nc(C)c(/C=C/C(=O)O)c2Cl)cc1,0.8,.
CN(C)C(=S)Nc1ccc(C(C)(C)C)cc1,2.7,-0.0165
CN(C)C(=O)Cc1ccc(S(=O)(=O)N2CCCC2)s1,-2.4,.
CN(Cc1cc2ccccc2[nH]c1=O)C(=O)c1ccccc1,2.3,-0.497
O=c1c2ccccc2n(Cc2ccccc2)c(=O)n1-c1cccc(Cl)c1,2.8,.
CCS(=O)(=O)NCCCc1ccccc1,2.0,-0.0365

# Compound profiles, from the list above. Order of screens: BasE inh	LANA-nucl inh
# c1ccn(-c2cnccn2)c1 is listed as .	1.07
# CN(C)C(=O)Cc1ccc(S(=O)(=O)N2CCCC2)s1 is listed as -2.4	.
# O=C(NCCN1C(=O)C2C3C=CC(C3)C2C1=O)Nc1ccccc1 (configuration not stated) is listed as 1.5	-0.843
# O=c1c2ccccc2n(Cc2ccccc2)c(=O)n1-c1cccc(Cl)c1 is listed as 2.8	.
# O=C(CN1C(=O)COc2ccccc21)Nc1ccc(S(=O)(=O)Nc2ncccn2)cc1 is listed as -0.4	.

# More structures:
SMILES,BasE inh,LANA-nucl inh
COC(=O)c1ccc(CSc2nc(N)cc(N)n2)cc1,0.8,-0.181
COc1cc(/C=N/n2c(=S)[nH]nc(C)c2=O)cc(Br)c1O,0.6,-1.29
CCN(C(=O)Cn1cnc2c(cnn2C)c1=O)c1ccccc1,-2.6,.
O=C(COc1cccc(NC(=O)C(F)(F)C(F)F)c1)N1CCOCC1,0.5,-0.185
Cc1nc(SCC(=O)N2CCCC2)c2c(C)c(C)sc2n1,0.5,.
Cn1cccc1C(C#N)c1ncc(C(F)(F)F)cc1Cl (configuration not stated),.,0.325
Cc1coc2cc3oc(=O)c4c(c3cc12)CCC4,-4.2,2.94
COCCNC(=O)c1cc2c(=O)n3cccc(C)c3nc2n(C)c1=N,3.2,-0.643
Cc1ccc2cc(C(c3nnnn3C3CCCC3)N3CCCc4ccccc43)c(=O)[nH]c2c1 (configuration not stated),0.3,-1.31
O=S(=O)(Nc1ccccc1)c1ccc2oc3ccc(S(=O)(=O)Nc4ccccc4)cc3c2c1,2.2,.
CCOC(=O)c1sc(NC(=O)C2CC(=O)N(c3ccccc3)C2)c(C#N)c1C (configuration not stated),-0.2,0.575
CCOC(=O)c1c(NC(=O)CSc2nccn2C)sc2c1CCCC2,1.4,0.134
Cc1ccc(-c2nc(N)sc2CC(=O)OCC(=O)NCc2cccs2)cc1,-3.3,.
O=C(CN(Cc1ccccc1)S(=O)(=O)c1ccc(Br)cc1)N1CCOCC1,0.9,-0.149
Cc1cc2ccccc2n1-c1ccc(C(=O)N2CCC(C(=O)N(C)Cc3ccccc3)CC2)s1,-1.3,0.403
O=C(O)c1cc2cc(Cc3cccnc3)ccc2o1,-0.3,-0.431
CC1=CC(=C(C#N)C#N)C=C(c2ccccc2)O1,-2.4,-0.452
Cc1cc(C(=O)CSc2nnc(N)s2)c(C)n1Cc1cccs1,-0.5,.
CC(Nc1ncnc2c1oc1ccccc12)C12CC3CC(CC(C3)C1)C2 (configuration not stated),2.6,.
CCSc1[nH]c(=O)cc(C)c1C#N,-1.6,.
CO[C@H](C(=O)[C@@H](O)[C@@H](C)O)[C@@H]1Cc2cc3cc(O[C@H]4C[C@@H](O[C@H]5C[C@@H](O)[C@H](O)[C@@H](C)O5)[C@@H](O)[C@@H](C)O4)c(C)c(O)c3c(O)c2C(=O)[C@H]1O[C@H]1C[C@@H](O[C@H]2C[C@@H](O[C@H]3C[C@](C)(O)[C@H](O)[C@@H](C)O3)[C@H](O)[C@@H](C)O2)[C@H](O)[C@@H](C)O1,.,0.162
Cc1cc(N2CCCCC2)nc(N2CCC(O)(Cc3ccccc3)CC2)n1,-3.8,2.23
O=C1NC(CCc2ccccc2)C(=O)N1Cc1cc(=O)n2ccsc2n1 (configuration not stated),3.3,.

# Among those listed so far, these have a tert-butyl group:
SMILES,BasE inh,LANA-nucl inh
COC(=O)C1CN(C(=O)c2ccc(C(C)(C)C)cc2)c2ccccc2O1 (configuration not stated),2.6,0.366
CC(C)(C)C(=O)Nc1nc(NC(=O)C(C)(C)C)nc(-c2ccccc2Cl)n1,2.2,.
CC(C)(C)NC(=O)Nc1ccc(S(=O)(=O)N2CCCC2)cc1,-0.2,.
CN(C)C(=S)Nc1ccc(C(C)(C)C)cc1,2.7,-0.0165

# Records listed above printed as active in LANA-nucl inh:
mol	LANA-nucl inh
CCN1CC=C2C(C#N)=C(N)C(C#N)(C#N)C(C)C2C1 (configuration not stated)	-2.5*

# Source: PubChem

# An excerpt. The share of hits here may be higher or lower than overall.
